Ba CapD inh – inhibitors of Bacillus anthracis CapD enzyme; z-score (test concentration not listed); hit rate 0.23% among 140,000; purified CapD enzyme, fluorescence intensity read-out; hits give low values; some hits fall short of the stated cut;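 active means z-score under -4 in either of two replicates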;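 further: stock transfer was 100 nL into about 40 µL; score is relative to mean and spread of the plate; one replicate is shown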
AID504770 – E. coli YBA685 growth inhibition, screen for V. cholerae RctB inhibitors | hit rate 0.27% among 130,000 | E. coli YBA685 rctB-dependent plasmid, OD600 growth, 3 h; hits give low values | z-score (concentration not given with the values);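 active means z-score under -2 on both plates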;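 further: wells of about 30 µL received 100 nL stock; score is relative to mean and SD of the test wells; the first replicate is given; strong numbers were not always called active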
An asterisk follows results filed as active; . = not tested or not shown.

SMILES	Ba CapD inh	AID504770
COc1ccc(C2=CC(c3ccccc3)SC(N)=N2)cc1 (stereo not given)	1.15	0.15
COc1ccc(/C(O)=C2/C(=O)C(=O)N(C)C2c2ccc(OC)cc2OC)cc1 (stereo not given)	-0.8	.
CC(NS(=O)(=O)c1ccccc1C#N)C1CC2CCC1C2 (stereo not given)	.	-0.95
NC(=O)C1CCN(C2=NS(=O)(=O)c3ccccc32)CC1	.	-0.7
CN1CC(C#N)C2(O)c3ccccc3CCC2C1 (stereo not given)	.	-0.65
COc1cc(C(=O)N2CCn3c(C)ccc3C2C)cc(OC)c1OC (stereo not given)	.	0.3
CC(C)(C)C(=O)OCOC(=O)[C@@H]1N2C(=O)[C@@H](NC(=O)[C@H](N)c3ccccc3)[C@H]2SC1(C)C	-1.4	.
CCC1(C)Cc2c(C#N)c(N)sc(=S)c2CO1 (stereo not given)	-0.195	-0.8
CCOC(=O)c1cc2occc2n1C(C)C(=O)OCC (stereo not given)	.	0.2
Cc1nn(S(=O)(=O)c2cc(C(F)(F)F)cc(C(F)(F)F)c2)c(C)c1Cc1c(Cl)cccc1Cl	-0.07	.
O=C1CC(C(=O)Nc2ccccc2)C2(CCCC2)O1 (stereo not given)	.	-0.35
NC(=O)CSCC(=O)Nc1ccccc1F	0.04	-0.95
Cc1cccc(C(=O)NN2C(=O)C3C4C=CC(C4)C3C2=O)c1 (stereo not given)	0.61	.
COc1ccc2c(C)cc(=S)[nH]c2c1	.	0.3
Cc1c(C(=O)Nc2ccccc2C(F)(F)F)sc2nc(SCC(=O)c3ccccc3)n(Cc3ccccc3)c(=O)c12	1.19	.

Quoted at random: 5 entries already listed
SMILES	Ba CapD inh	AID504770
CN1CC(C#N)C2(O)c3ccccc3CCC2C1 (stereo not given)	.	-0.65
Cc1c(C(=O)Nc2ccccc2C(F)(F)F)sc2nc(SCC(=O)c3ccccc3)n(Cc3ccccc3)c(=O)c12	1.19	.
CCOC(=O)c1cc2occc2n1C(C)C(=O)OCC (stereo not given)	.	0.2
COc1cc(C(=O)N2CCn3c(C)ccc3C2C)cc(OC)c1OC (stereo not given)	.	0.3
Cc1cccc(C(=O)NN2C(=O)C3C4C=CC(C4)C3C2=O)c1 (stereo not given)	0.61	.

Next part:
SMILES	Ba CapD inh	AID504770
O=C(NCCc1ccccc1)C1CCN(Cc2cnn(-c3ccccc3)c2-n2cccc2)CC1	-0.535	-0.45
O=C1/C(=C/c2cc(Br)cs2)CCC/C1=C\c1cc(Br)cs1	-0.415	-0.9
CCCCCCSc1n[nH]c(=O)[nH]c1=O	.	-0.4
COc1ccc(NC(=S)N/N=C/c2ccc(Cl)cc2)cc1	-2.26	.
O=C(NCCNc1ncc(C(F)(F)F)cc1Cl)C1=Cc2cc(Cl)ccc2OC1	-0.275	.
Cc1ccc(CN2CCC(CNC(=O)Nc3ccccc3)CC2)cc1	-0.525	0.35
CCOC(=O)C1CCN(C(=O)CN2CCN(c3ccccc3O)CC2)CC1	.	-0.3
COc1ccccc1C1C2=C(CCCC2=O)N(CC(=O)O)C2=C1C(=O)CCC2	6.04	-0.15
O=C(N1CCN(CCO)CC1)N1c2ccccc2C=Cc2ccccc21	0.52	-0.4
COCCNS(=O)(=O)c1ccc2oc(=O)c3ncn(C)c3c2c1	0.185	-0.7
O=C(Nc1ccc(-c2csc(-c3ccccc3)n2)cc1)c1cccs1	7.89	1.85
COc1ccc(C(=O)NCc2cccnc2)cc1S(=O)(=O)N1CCCc2ccccc21	.	0.4
COc1ccc2c(-c3ccccc3)cc3nnnn3c2c1	.	0.8
COc1nc(NCc2cccnc2)nc(N2CCSCC2)n1	0.425	.
CC1CCN(C(=O)c2ccc3c(c2)NC(=O)CN3)CC1	22.6	-1.1
COc1cc(-c2[nH]c(=S)nc(N)c2C#N)ccc1O	3.16	-0.7
O=C(Nc1sc2c(c1C(=O)c1ccccc1)CCCC2)c1ccco1	.	0.55
CCN(C(=O)C1c2ccccc2Oc2ccccc21)c1ccccc1	0.175	-0.4
Cc1ccc(N2C(=O)/C(=C/c3ccc(-c4ccc([N+](=O)[O-])cc4)o3)C=C2c2ccccc2)cc1C	-0.34	.
Cc1cc(NC(=O)C(NC(=O)c2ccc(F)cc2)C23CC4CC(CC(C4)C2)C3)no1 (stereo not given)	0.66	-0.25
CSc1nnc(Cn2c(=O)sc3ccccc32)n1-c1ccccc1	-0.725	2.8
CC(C)(C)C1CCC(OCC(O)CN2CCCC2)CC1 (stereo not given)	0.305	0.75
COc1ccc(C2C(C(=O)Nc3ccccc3)=C(C)Nc3ncnn32)cc1 (stereo not given)	-0.405	.
COc1ccc(/C(O)=C/c2nc3cc(C)ccc3oc2=O)c(OC)c1	-0.06	0.15
O=C1C(Cc2ccc(O)cc2)NC(=S)N1Cc1ccccc1 (stereo not given)	-1.08	1.2
O=[N+]([O-])c1ccc(C2Nc3c(Cl)cc(Cl)cc3C3C(Cl)C(Sc4ccccc4[N+](=O)[O-])CC23)cc1 (stereo not given)	-0.02	.
CCOc1cc(C2Nc3ccccc3NC3=C2C(=O)CC(c2ccc(OC)cc2)C3)cc([N+](=O)[O-])c1O (stereo not given)	-1.68	.
CC1=NNC(=O)C1CC(=O)N/N=C(/C)c1ccccc1 (stereo not given)	-0.22	-0.7
Cc1cc(C)nc(SCc2ccc(OC(C)C)cc2)n1	-0.295	.
NC(N)=NS(=O)(=O)c1ccc2[nH]c(=O)oc2c1	-0.16	-1.15

Laid out differently: results already given.
Values run as follows: Ba CapD inh	AID504770
O=C1C(Cc2ccc(O)cc2)NC(=S)N1Cc1ccccc1 (stereo not given)
    -1.08	1.2
O=[N+]([O-])c1ccc(C2Nc3c(Cl)cc(Cl)cc3C3C(Cl)C(Sc4ccccc4[N+](=O)[O-])CC23)cc1 (stereo not given)
    -0.02	.

The list goes on:
SMILES	Ba CapD inh	AID504770
N#CCN(CC#N)C(=O)CSc1ccccc1	0	1.75
CSCCn1c(-c2ccccc2)cc(C(=O)N2CCCC2)c1C	9.96	-1.05
CNC(=O)N1c2ccccc2C=Cc2ccccc21	-0.545	.
O=C(Cc1coc2ccc3ccccc3c12)Nc1cc(C(F)(F)F)ccc1-n1cncn1	.	0.05
O=C1CCN(C(=O)c2ccc(Cl)cc2Cl)c2ccccc2N1	-0.27	.
CCN(Cc1ccccc1)Cc1nnnn1CCOC	.	-0.3
Cc1ncc(CO)c2c1Oc1[nH]c(-c3ccccc3)nc(=S)c1C2	-1.31	1.1
CCN(CCN(C)C)C(=O)Cn1ncc2c(=O)oc3ccc(C)cc3c21	3.08	-1.45
CCCC1(CCC)NC(=O)N(CCOc2ccc(C)cc2)C1=O	.	0.15
CN1CCC(N(C)C(=O)c2cn(-c3ccccc3)nc2-c2cccs2)CC1	1.63	-0.25
Brc1ccc(-c2ccc(C3CCCCC3)cn2)cc1	-0.03	1.65
C=CCNC(=O)CCn1c(=O)sc2ccccc21	-0.345	-0.25
O=C(Nc1cccc(C(F)(F)F)c1)c1c(F)cccc1F	-0.125	.
O=C(CSc1nnc(-c2ccccc2)o1)Nc1ccccc1	.	-0.8
CC1=NCCN1CCNC(=O)Nc1ccc(F)cc1	0.335	-0.6
Cc1ccc(C)n1-c1ccc(-c2n[nH]c(=S)n2-c2ccccc2)cc1	1.14	.
COc1cc(C2C(C#N)=C(SCC(=O)c3cc4ccccc4o3)NC3=C2C(=O)CC(C)(C)C3)cc(OC)c1OC (stereo not given)	-0.835	1.7
CC1(C)CC(=O)C2=C(C1)c1c(ccc3ccccc13)NC2c1cccc([N+](=O)[O-])c1 (stereo not given)	0.745	.
Cc1ccc(CNC(=O)C2CCN(S(=O)(=O)N3CCC4(CC3)OCCO4)CC2)cc1	-0.24	-0.35
CCOc1ccsc1C(=O)NN	-0.43	.
O=C1CSC(c2ccccc2O)N1Cc1ccccc1 (stereo not given)	-0.555	2.55
CN(C)S(=O)(=O)c1cccc(C(=O)N2CCN(c3ccccc3)CC2)c1	.	-0.6
O=C(CC1(O)C(=O)N(Cc2ccccc2)c2ccccc21)c1ccc(Br)s1 (stereo not given)	-0.405	0.1
CCN(CC)S(=O)(=O)c1ccc(Cl)c(C(=O)N2c3ccccc3Sc3ccccc32)c1	-0.225	0.75
CN(Cc1nc2ccccc2n1C)S(=O)(=O)c1ccc(F)cc1	-0.405	-0.75
Cc1cc(C)c2c(=O)n(CC(=O)NC(C)c3ccccc3)sc2n1 (stereo not given)	-0.025	-0.65
CCOC(=O)c1nc(Nc2ccc3c(c2)OCO3)c2c3c(sc2n1)CCCC3	-0.145	.
COCCCNC(=O)C(=O)Nc1cccc(C(F)(F)F)c1	0.395	.
Cc1ccccc1C(=O)NC1CCN(CC(=O)NC(C)(C)C)CC1	.	-0.55
O=C(Oc1ccc2oc(-c3ccco3)cc(=O)c2c1)c1ccccc1	2.62	1.35
Cc1ccccc1NC(=O)/C=C/c1ccc2c(c1)OCO2	-0.955	0.55
CC1CCCCN1C(=O)c1ccccc1F (stereo not given)	.	-0.3
CC1(C)CC(=O)c2sc(NC(=O)c3cc(=O)c4ccccc4o3)nc2C1	-1.67	-0.45
O=C1CSC(c2ccc(Cl)cc2)N1Nc1nc(Nc2ccccc2)nc(N2CCCCC2)n1 (stereo not given)	0.31	-0.35
O=C(CSC1=NC(=O)C(Cc2ccccc2)C(=O)N1)Nc1cccc2ccccc12 (stereo not given)	-0.335	.
COc1cccc(C(=O)OCC(=O)N2c3ccccc3CC2C)c1 (stereo not given)	.	-0.7
Cn1nnnc1SCC(=O)NC1Cc2ccccc2C1	-0.105	-2.3
CCCC(=O)Nc1c2c(nn1-c1ccc(OC)cc1)CSC2	-0.06	-0.3
CCOC(=O)C1=C(CSc2nnc3n(-c4ccccc4)c(=O)c4ccccc4n23)NC(=O)NC1C (stereo not given)	.	-1.05
CC1CCc2cc(F)cc3c(O)c(C(=O)Nc4ccccn4)c(=O)n1c23 (stereo not given)	6.73	1.05
COc1ccc(C(C(N)=O)c2ncc(C(F)(F)F)cc2Cl)cc1OC (stereo not given)	-1.23	.
CCOC(=O)C(C)n1cnc2c(cnn2-c2ccc(F)cc2)c1=O (stereo not given)	-2.2	-0.85
CN(C)C(=O)/C=C/c1cn(-c2ccccc2)nc1-c1cc2ccccc2o1	.	0.15
CN(C)/C=C(/C(=O)c1ccccc1Cl)S(=O)(=O)c1ccccc1	-0.39	.
CCCSc1nc2sc3c(c2c(=O)[nH]1)C(C)CCC3 (stereo not given)	1.1	-0.75

Complete entries as entered above.
`CC1CCCCN1C(=O)c1ccccc1F` (stereo not given) across the screens: Ba CapD inh: .; AID504770: -0.3
`O=C1CSC(c2ccc(Cl)cc2)N1Nc1nc(Nc2ccccc2)nc(N2CCCCC2)n1` (stereo not given) across the screens: Ba CapD inh: 0.31; AID504770: -0.35

Going on with the list.
SMILES	Ba CapD inh	AID504770
CCN(CC)c1ccc2cc(-c3nnc(NCc4ccc(F)cc4)s3)c(=O)oc2c1	-0.195	.
N#Cc1cc(-c2cccc(C(F)(F)F)c2)cnc1Sc1ccc(Cl)cc1	-0.32	.
COc1ccc(C2NC(=O)NC3=C2C(=O)CCC3)cc1 (stereo not given)	.	-2.25
Cc1oc(-c2ccccc2F)cc1CO	.	0.7
COCC1=C(C(=O)OC)C2(C(=O)N(C(C)=O)c3ccccc32)C(C#N)=C(N)O1 (stereo not given)	0.365	.
Cc1cc2nnc(SCC(=O)NCC(C)C)n2c2ccccc12	0.41	0.1
CC1CCCC(C)N1S(=O)(=O)c1ccc(NC(=O)c2ccccc2C(=O)N2CCOCC2)cc1 (stereo not given)	-0.265	-0.55
CS(=O)(=O)Nc1ccc(-c2cn3c(n2)SCC3)cc1	1.17	1.65
Cc1ccc2cnn(CC(=O)N3CCCCC3)c2c1	-0.515	-1
CN(C)c1nc(N)nc(Cn2cnc3sc4c(c3c2=O)CCCC4)n1	.	-0.05
COc1ccc(C2NC(C(=O)O)C3C(=O)N(c4ccc(F)cc4)C(=O)C23)c(OC)c1 (stereo not given)	0.17	0
CCCS(=O)(=O)c1c(S(=O)(=O)CCC)c2cc(-c3ccncc3)ccn2c1C(=O)c1ccc(F)cc1	6.01	.
CC(=O)N1N=C(c2ccccc2)CC1Cc1cc2cccc(C)c2[nH]c1=O (stereo not given)	-0.25	.
CNC(=O)NC(=O)CSc1nnc(-c2ccncc2)n1Cc1ccccc1	0.885	-1
O=C(ON(Cc1c(F)cccc1Cl)Cc1c(F)cccc1Cl)C1CC1	0.32	0.25
COc1ccccc1N(C(C)=O)C1SC(=O)N(c2ccccc2)C1=O (stereo not given)	-0.015	-0.3
O=Nc1c(O)n2c3c(cccc13)CCC2	.	2.5
CCn1nc(C)cc1C(=O)n1nc(C)c(Sc2ccc(C(F)(F)F)cn2)c1C	0.095	-0.85
CN1C(C(=O)c2ccccc2)=C(NC(=O)c2ccccc2)c2ccccc2S1(=O)=O	-0.94	-1.05
COc1ccc(-c2nc3c4ccccc4c4ccccc4c3[nH]2)cc1OC	-0.87	.
Cc1cccn2c(NC(=O)c3ccc(Br)cc3)c(-c3ccccc3)nc12	-0.385	.
O=C(O)CSc1c2c(nc3cc(C(=O)N4CCOCC4)ccc13)CCCC2	-0.315	-0.25
CC(C)(C)c1cc(C(F)(F)F)nc(N)n1	0.475	.
COc1ccc(NC(=O)Cn2c(=O)n(Cc3ccco3)c(=O)c3ccc(C(=O)NC4CCCC4)cc32)cc1	0.66	-0.3
Cc1ccc(NC(=O)C(C)C(=O)Nc2ccc(C)cc2)cc1	.	-0.75
COc1ccc(C2C(N3C(=O)c4c(Cl)c(Cl)c(Cl)c(Cl)c4C3=O)C(=O)N2c2ccc(C)c(C)c2)cc1Br (stereo not given)	-0.005	.
O=C1c2ccccc2NC(c2cccs2)N1c1ccc2c(c1)OCCO2 (stereo not given)	.	-0.25
O=C(O)CCCC(=O)Nc1ccccc1	.	-0.05
Cc1cc(-c2csc(CC#N)n2)c(C)n1Cc1ccco1	.	-0.35
